# Cruzain Triton: cruzain (T. cruzi) inhibition with detergent | P25779 | purified cruzain, Z-FR-AMC fluorescence, 0.01% Triton | Potency, µM, for inactives: max response, negative = inhibition, most hits filed as inhibitors | hit rate 0.43% among 200,000;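 also: plate controls were neutral wells for no effect and buffer without enzyme for full effect; nearly all actives have a fitted effect of over 40% in size; top concentration of the series not given in the record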
# Target sequence (P25779 123-467 limits assumed): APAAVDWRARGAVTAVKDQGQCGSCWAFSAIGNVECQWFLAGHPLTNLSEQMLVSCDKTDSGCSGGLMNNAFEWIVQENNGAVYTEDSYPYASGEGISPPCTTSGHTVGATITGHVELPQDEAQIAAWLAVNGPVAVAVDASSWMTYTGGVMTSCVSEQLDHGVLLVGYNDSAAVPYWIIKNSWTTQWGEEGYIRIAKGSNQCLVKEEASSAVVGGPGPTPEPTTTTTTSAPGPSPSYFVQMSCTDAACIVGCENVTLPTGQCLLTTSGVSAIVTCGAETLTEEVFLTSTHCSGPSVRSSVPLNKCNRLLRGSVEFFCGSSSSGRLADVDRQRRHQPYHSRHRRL
#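 Detergent-containing run (0.01% Triton X-100) in acetate buffer pH 5.5 with 5 mM DTT: enzyme at 1.5 nM final, 15 min compound preincubation at room temperature, then 2 uM Z-FR-AMC substrate. Activity taken as 60 s fluorescence increase at 360/450 nm.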
# SARS PLpro yeast: blocks SARS-CoV papain-like protease in a yeast assay. S. cerevisiae expressing SARS-CoV PLpro, growth rescue; control for the full effect not named in the record. Potency, µM (series often up to 32.9 µM), for the others: at the top dose activity, positive = growth rescue. hit rate 0.19% among 330,000. AID 485353; active means well fitted rising curve with a large enough effect; inconclusive means small, poorly fitted or top-dose-only effect; inactive means no such curve, though single readings can be large or run the other way; also: 0% is about no effect; nearly all actives have a fitted effect of over 55% in size; growth read by luminescence after 48 h
# NS1 inh: blocks influenza NS1 protein function. S. cerevisiae slowed by influenza A NS1, growth recovery by OD600. Potency, µM (highest dose often 46.1 µM), inactives show top-dose activity, positive = more growth. hit rate 0.4% among 270,000. AID 2326; active means well fitted rising curve with a large enough effect; inconclusive means small, poorly fitted or top-dose-only effect; inactive means no such curve, though single readings can be large or run the other way; also: nearly all actives have a fitted effect of over 50% in size
#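 A cell-based growth assay was used: compounds that relieve NS1-induced slow growth of budding yeast raise OD600. Assay medium was yeast nitrogen base with ammonium sulphate and -URA supplement, pH 6.0, with 2% galactose.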
# RE007 growth inh: less growth of the S. pombe RE007 Vpr strain. S. pombe RE007 Vpr strain, BacTiter-Glo ATP luminescence, 24 h; control for the full effect not named in the record. Potency, µM (highest dose often 92.2 µM), inactives show at the top dose activity change, negative = less growth. hit rate 0.21% among 360,000. AID 651644; active = well fitted falling curve with a large enough effect; inconclusive = small, poorly fitted or top-dose-only effect; inactive = no such curve, though single readings can be large or run the other way;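 also: % is scaled to controls: 0 for no effect and ±100 for the full control effect; nearly all actives have a fitted effect of over 50% in size; the assay follows cell death caused by Vpr and the record does not say whether a fall means rescue or toxicity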
#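 Fission yeast RE007 carrying one integrated HIV-1 vpr copy, seeded at OD 0.01 in PMG+AL medium with 23 nL pinned compound. Grown 24 h at 30 degrees; viability read by BacTiter-Glo luminescence after 5 min.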
# 2A StopGo: FMDV 2A StopGo reporter, luciferase signal; human cells with a luciferase reporter of 2A StopGo recoding; control for the full effect not named in the record; Potency, µM (top dose mostly 57.9 µM), for inactives: at the highest dose signal change, negative = less light; hit rate 1.2% among 410,000; active = well fitted falling curve with a large enough effect; inconclusive = small, poorly fitted or top-dose-only effect; inactive = no such curve, though single readings can be large or run the other way; tested in HEK293T cells; also: % is scaled to controls: 0 for no effect and ±100 for the full control effect; nearly all actives have a fitted effect of over 45% in size; luciferase light after 4 h
# Cruzain inh noDet: blocks cruzain activity in detergent-free assay | purified cruzain, Z-FR-AMC fluorescence, no detergent | Potency, µM, without a hit: max response, negative = inhibition, actives largely listed as inhibitors | hit rate 2.3% among 200,000;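 also: plate controls were enzyme without inhibitor for no effect and buffer without enzyme for full effect; nearly all actives have a fitted effect of over 40% in size; top concentration of the series not given in the record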
#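 Purified cruzain at 1.5 nM, pre-incubated 15 min with compound at room temperature in 100 mM sodium acetate pH 5.5, 5 mM DTT, 0.00005% Triton X-100. Reaction started with 2 uM Z-FR-AMC; AMC fluorescence increase over 60 s gives rate.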
# LASV entry inh: Lassa virus entry inhibition | Lassa virus pseudotype entry inhibition, cell reporter; control for the full effect not named in the record | Potency, µM (top dose mostly 37.9 µM), for inactives: top-dose activity change, negative = inhibition, hits mostly inhibitors | hit rate 1.2% among 300,000 | AID 540256; active means well fitted inhibition curve with a large enough effect; inconclusive means small, poorly fitted or top-dose-only effect, or effect the other way; inactive means flat fitted curve, though single readings scatter; tested in HEK293 cells; also: % is scaled to controls: 0 for no effect and ±100 for the full control effect; nearly all actives have a fitted effect of over 50% in size; luciferase read-out
# Marburg entry inh: inhibitors of Marburg virus binding or cell entry; Marburg virus pseudotyped entry inhibition, cell reporter; control for the full effect not named in the record; about a third of the inactives were read at about 46 µM; Potency, µM (highest dose often 37.8 µM), inactives show at the top dose activity change, negative = inhibition, most hits filed as inhibitors; hit rate 1.8% among 300,000; active = well fitted inhibition curve with a large enough effect; inconclusive = small, poorly fitted or top-dose-only effect, or effect the other way; inactive = flat fitted curve, though single readings scatter; tested in HEK293 cells; about a fifth of its hits are not listed in these tables; also: % is scaled to controls: 0 for no effect and ±100 for the full control effect; luciferase read-out
# Active calls of the source: *; ? = inconclusive; . = not tested or not shown; & = joins results of further samples; [ ] = remark or other dose. Unless noted, calls follow the shape of the dose curve; as a rule, active = well fitted curve in the direction sought with a large enough effect; inconclusive = small, poorly fitted or top-dose-only effect, or another doubt; inactive = no such curve, though single readings can be large; an effect the other way counts as inactive or inconclusive. Potency is read from the fitted curve at half-maximal effect.
SMILES,Cruzain Triton,SARS PLpro yeast,NS1 inh,RE007 growth inh,2A StopGo,Cruzain inh noDet,LASV entry inh,Marburg entry inh
Cc1cc(C)cc(NC(=O)C(OC(=O)c2sccc2C)c2ccccc2)c1 (stereo not given),-5.4%,11%,6%,-5%,13%,-5%,12%,-25%
Cc1ccc2cc3c(N)c(C(=O)N4CCOCC4)sc3nc2c1,-8.0%,1%,7%,-1%,-11%,-8%,-22%,-20%
CC(=O)N1CCN=C1SCc1cccc(C(F)(F)F)c1,-8.6%,-4%,3%,7%,-25%,-4%,?,-16%
Cc1nn2c(=O)cc(COC(=O)CNC(=O)c3ccc(F)cc3)nc2s1,-8.9%,.,.,.,-22%,-12%,1%[46.1 µM],.
O/N=C1/CCSc2ccccc21,-2.6%,2%,4%,4%,-7%,0%,4%,4%
CC(=O)COc1ncnc2c(Cl)cc(Cl)cc12,.,1%,.,?,-8%,.,-24%[46.1 µM],-9%[46.1 µM]
CCOc1ccccc1NC(=O)C(OC(=O)c1ccc(N(C)C)cc1)c1ccccc1 (stereo not given),-4.1%,10%,11%,.,-16%,?,?,?
CCC1CCCCN1C(=O)c1c[nH]c2ccc(S(=O)(=O)N(C)c3ccc(Cl)cc3)cc2c1=O (stereo not given),-2.7%,7%[6.58 µM],0%,-11%,.,?,?,-18%
CCc1nc(C)cc2c1sc1ccccc12,.,1%,-4%,-22%,0%,.,17%,12%[46.1 µM]
CC(=O)Nc1ccc(NC(=O)CSc2ccc3nnc(-c4cccnc4)n3n2)cc1,.,-5%,-5%,-20%,-12%,.,.,.
CN(Cc1ccccc1)C(=O)C1CCC(CNS(=O)(=O)c2ccc3c(c2)CCCC(=O)N3)CC1 (stereo not given),0.8%,.,.,.,?,?,-29%[46.1 µM],.
O=C(c1c(F)cccc1F)N1CCN=C1SCc1ccccc1,.,0%,-44%,0%,-15%,.,.,.
Clc1ccc2c(c1)Nc1ccccc1CC2,.,.,.,-21%,15%,.,15%,4%
CC(NC(=O)C1CCC(CNS(=O)(=O)c2ccccc2)CC1)c1ccccc1 (stereo not given),.,0%,-6%,15%,-26%,.,-24%,?
Cc1cc(C)c2nc(Cl)c(Cl)nc2c1,.,1%,2%,17%,-10%,.,-3%[46.1 µM],3%[46.1 µM]
CCOc1ccccc1NS(=O)(=O)c1c(C)nc2sccn2c1=O,-4.0%,.,.,.,5%,-8%,-3%[46.1 µM],.
COc1ccc(CNC(=O)CCc2c(C)nc3c(c(C)nn3-c3ccccc3)c2C)cc1,-2.9%,.,.,.,?,?,2%[46.1 µM],?
CCOC(=O)c1ccc2ncc(-c3ccccc3)nc2c1,.,-1%,.,-11%,44%[activator],.,-26%,-26%[46.1 µM]
Cc1nc2cc(NS(=O)(=O)c3ccc(Br)cc3)ccc2n1C,.,0%,1%,0%,?,.,4%[46.1 µM],?
COc1ccc(NC(=O)[C@H]2O[C@@H]3OC(C)(C)O[C@@H]3[C@H]3OC(C)(C)O[C@H]32)c(OC)c1,-2.6%,.,.,.,5%,3%,0%[46.1 µM],?
CCC(c1nnc(SCC(=O)NC23CC4CC(CC(C4)C2)C3)o1)N(C)C (stereo not given),-0.6%,12%,3%,-3%,-9%,-6%,-12%,-27%
C=CCc1ccccc1OCC(=O)NNC(=S)NCc1ccccc1,.,11%,?,4%,-21%,.,-20%,?
CN(C(=O)c1ccccc1C(=O)OCC(=O)Nc1ccc(S(N)(=O)=O)cc1)c1ccccc1,.,-9%,.,1%,9%,.,-25%,4%[46.1 µM]
Cc1ccc(S(=O)(=O)N(CC(=O)N2CCc3ccccc3C2)c2ccc(C)c(C)c2)cc1,-4.4%,.,.,.,18%,9%,?,.
Cc1cc(C)cc(NC(=O)CNS(=O)(=O)c2ccc3nc(C)sc3c2)c1,-0.1%,.,.,.,3%,2%,5%[46.1 µM],-4%[46.1 µM]
NC(N)=Nc1nc2ccc([N+](=O)[O-])cc2[nH]1,-12%,0%,-3%&1%,11%,28%,-9%,.,.
Cc1ccc(/C=C(\C#N)C(=O)Nc2c(C)cccc2C)s1,-5.6%,-3%,-2%,0%,.,-25%,33%,-18%
CN(C(=O)CN1C(=O)S/C(=C\c2ccccc2Cl)C1=O)C1CCS(=O)(=O)C1 (stereo not given),.,-11%,-2%,25%,?,.,.,.
O=C(CSc1nnc(-c2ccco2)o1)NC1CCCCCC1,1.0%,-6%,-16%,1%,-4%,-8%,-1%,1%
C/C(N)=C(/C#N)C(=O)CSc1nncn1-c1ccccc1,.,1%,.,1%,1%,.,10%,16%[46.1 µM]
Cn1c(=O)c(C(=O)COC(=O)c2cc(-c3ccco3)nc3ccccc23)c(N)n(CC2CC2)c1=O,?,1%,?,.,.,?,-26%,-10%&-10%
O=C(NNc1nc2c(F)cc(F)cc2s1)c1ccccc1,.,-1%,0%,8%,13%,.,5%[46.1 µM],?
Cc1cc(S(=O)(=O)c2cc3ccc(O)c(C)c3oc2=O)ccc1F,.,-2%,1%,9%,-11%,.,?,10%[46.1 µM]
CCN(C(=O)CN1C(=O)/C(=C/c2ccccc2)SC1=S)C1CCS(=O)(=O)C1 (stereo not given),.,-2%,3%,-4%,-6%,.,11%[46.1 µM],1%[46.1 µM]
COCCN(C(=O)COC(=O)CNC(=O)c1cccs1)c1c(N)n(Cc2ccccc2)c(=O)[nH]c1=O,.,0%,.,5%,-18%,.,19%,-14%
O=C(CSc1oc(-c2ccco2)nc1S(=O)(=O)c1ccc(F)cc1)NCC1CCCO1 (stereo not given),-7.8%,20%,-2%,2%,14%,3%,1%,-3%
Cc1ccc(Nc2sc(C(=O)c3ccccc3)c(N)c2C(=O)Nc2ccc(Cl)cc2)cc1,-2.6%,.,.,.,-53%,?,-6%[46.1 µM],.
Cc1cc(C(=O)N=Nc2c(O)n(C)c3ccccc23)c(C)o1,-4.7%,1%,13%,-12%,-1%,-4%,4%,8%
CCc1nnc(NC(=O)c2nc(SCc3ccccc3F)ncc2Cl)s1,-6.1%,.,.,.,-9%,-5%,10%[46.1 µM],-5%[46.1 µM]
CCOc1ccc(NC(=O)c2cc3c(=O)n(C)c4ccccc4c3n2C)cc1,-6.8%,2%,21%,1%,-14%,?,.,.
CCCCNC(=O)c1cc2ccccc2s1,.,-5%,.,-17%,45%[activator],.,-2%,1%[46.1 µM]
O=C1C(=O)N(CCCn2ccnc2)C(c2cccc(Br)c2)/C1=C(\O)c1ccc2c(c1)OCCO2 (stereo not given),.,-3%,-7%,0%,-22%,.,.,.
O=C(CCN1CCN(c2ccccc2F)CC1)Nc1ccc2c(c1)OCO2,-0.8%,-2%,-4%,-2%,.,1%,?,-30%
COc1cccc(-c2nc(CS(=O)(=O)CC(=O)Nc3ccc(C(C)=O)cc3)c(C)o2)c1,.,-4%,1%,-1%,-18%,.,.,.
CCCc1cc(N2CCN(c3ccc(OC)cc3)CC2)n2cnnc2n1,-2.7%,.,.,.,?,1%,-20%[46.1 µM],-30%[46.1 µM]
Cc1cc(-c2ccc(S(=O)(=O)N3CCN(c4ccc(Cl)cc4)CC3)s2)on1,-1.4%,.,.,.,-21%,-1%,2%[46.1 µM],.
O=C(Cc1ccc(-n2cccc2)cc1)NC1CCCCCC1,2.8%,-16%,3%,-7%,3%,?,-16%,-6%
O=C(NC1CCN(C(=O)Nc2ccccc2Cl)CC1)c1ccco1,.,8%,1%,1%,-11%,.,0%,14%[46.1 µM]
COc1ccc(N=c2cc(-c3ccc(O)cc3)oc3ccccc23)cc1,-9.9%,11%,-29%,-8%,?,5%,-35%,8%
COc1ccc(-c2cnc(SCC(=O)Nc3ccc4c(c3)OCO4)n2Cc2ccco2)cc1,0.7%,2%,-56%,6%,?,-1%,?,?
CC(c1ccccc1)N1C(=O)CC(Sc2ncccc2C(=O)O)C1=O (stereo not given),-1.8%,-4%,5%,3%,.,-9%,-12%,1%
O=C(O)/C(CC(=O)c1ccc(Cl)cc1)=N/Nc1ccc([N+](=O)[O-])cc1[N+](=O)[O-],.,-2%,-7%,-1%,-12%,.,.,.
c1cncc(-c2nc(NCc3cccs3)c3ccccc3n2)c1,-4.5%,-1%,.,-2%,?,1%,-7%,-27%&-27%[46.1 µM]
O=C(CSCc1ccccc1)Nc1ccccc1,.,1%,-9%,-14%,111%[activator],.,?,?
Cc1ccc2nc(C)cc(Nc3ccc([N+](=O)[O-])cc3)c2c1,.,-2%,.,-11%,-10%,.,?,?
O=C1CCc2cc(S(=O)(=O)NC(C(=O)Nc3cccc(F)c3)c3ccccc3)ccc2N1 (stereo not given),1.0%,.,.,.,26%,-3%,6%[46.1 µM],?
Cn1c(=O)oc2cc(S(=O)(=O)N3CCCC(C(=O)NCCN4CCOCC4)C3)ccc21 (stereo not given),3.7%,3%,-1%,-16%,?,1%,.,-6%
CC(=O)c1ccc(COC(=O)Cc2ccc([N+](=O)[O-])cc2)cc1,.,-7%,-10%,0%,-5%,.,.,.
Cc1cccc(-n2c(=O)c3ccccc3n(Cc3ccccc3C#N)c2=O)c1,-1.8%,.,.,.,-13%,-17%,-1%[46.1 µM],11%[46.1 µM]
COc1ccccc1NC(=O)Nc1cc(F)ccc1F,.,-1%,-6%,-19%,17%,.,.,.

# Following part.
SMILES,Cruzain Triton,SARS PLpro yeast,NS1 inh,RE007 growth inh,2A StopGo,Cruzain inh noDet,LASV entry inh,Marburg entry inh
O=C(COC(=O)c1ccc(NS(=O)(=O)c2cccs2)cc1)NCC1CCCO1 (stereo not given),.,1%,0%,?,-10%,.,15%,-9%[46.1 µM]
O=C(NC1CCCC1)C1(c2ccccc2)CCN(S(=O)(=O)c2ccccc2)CC1,-3.0%,1%,2%,8%,-6%,5%,-17%,-15%
Clc1ccc(CNCc2cccs2)cc1Cl,-1.9%,-5%,-11%,-15%,10%,-9%,13%,23%
CCOc1ccc(C(=O)Nc2ccc3nc4c(c(Nc5ccccc5OC)c3c2)CCCC4)cc1,-12%,.,.,.,-26%,-10%,11µM*,?
CC1Sc2ccc(S(=O)(=O)N3CCC(C(=O)Nc4cccc(Cl)c4)CC3)cc2NC1=O (stereo not given),.,-2%,?,0%,20µM*,.,?,?

# Compounds were not picked by outcome, and some 4.8% of all compounds hit somewhere here.
